Assay outcomes: PubChem BioAssay, several laboratories
Mtb betalactam – beta-lactam sensitization of Mtb H37Rv, H37Rv. M. tuberculosis H37Rv growth with meropenem, percent inhibition; hits of this screen are not shown here. inhibition, % at 25 µM. hit rate 0.27% among 330,000;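 active = about 74% or more and at least 40 points above the plate without the antibiotic, then above 30% in a dose series; inconclusive = first-round hits that could not be retested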;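 note: growth measured after seven days incubation then overnight dye step; 0% = bacteria only wells and 100% = bacteria with antibiotic; twin plates without the antibiotic show which effects depend on it; some results filed as inactive read as strong as hits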
Arbovirus anti – antivirals against arbovirus infection, primary screen, cell-based, full library, 10K replicate subset; inhibition, % at 10 µM; AID 1251, 2008; arbovirus infection cell-based antiviral screen; hit rate 0.37% among 200,000;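 active = inhibition from about 30%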;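 note: bluetongue infection of BSR cells; cell survival read as ATP light after 72 h; 0% = infected wells without compound and 100% = uninfected wells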
YopH inh – YopH tyrosine phosphatase inhibitors, primary screen, biochemical, fluorescence Ex485/Em525. hit rate 0.16% among 140,000. inhibition, %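 (about 10 µM by stock and volumes)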. YopH tyrosine phosphatase [Yersinia enterocolitica];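 active = inhibition of 50% or more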;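 note: controls were vehicle for no effect and minimum signal wells for full effect; inactives centre near -20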
RecA splice inh – Mtb RecA intein splicing inhibitors, primary screen, biochemical, fluorescence, HTS; cell-free RecA intein splicing; inhibition, %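 (about 9 µM by stock and volumes)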; hit rate 0.75% among 290,000; AID 2221, 2009; in the data active = inhibition above about 30%; inconclusive = no clear call, values can overlap the other calls;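 note: 0% = vehicle wells and 100% = reference inhibitor control wells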
Target sequence (P9WHJ3 whole entry, looked up, canonical isoform): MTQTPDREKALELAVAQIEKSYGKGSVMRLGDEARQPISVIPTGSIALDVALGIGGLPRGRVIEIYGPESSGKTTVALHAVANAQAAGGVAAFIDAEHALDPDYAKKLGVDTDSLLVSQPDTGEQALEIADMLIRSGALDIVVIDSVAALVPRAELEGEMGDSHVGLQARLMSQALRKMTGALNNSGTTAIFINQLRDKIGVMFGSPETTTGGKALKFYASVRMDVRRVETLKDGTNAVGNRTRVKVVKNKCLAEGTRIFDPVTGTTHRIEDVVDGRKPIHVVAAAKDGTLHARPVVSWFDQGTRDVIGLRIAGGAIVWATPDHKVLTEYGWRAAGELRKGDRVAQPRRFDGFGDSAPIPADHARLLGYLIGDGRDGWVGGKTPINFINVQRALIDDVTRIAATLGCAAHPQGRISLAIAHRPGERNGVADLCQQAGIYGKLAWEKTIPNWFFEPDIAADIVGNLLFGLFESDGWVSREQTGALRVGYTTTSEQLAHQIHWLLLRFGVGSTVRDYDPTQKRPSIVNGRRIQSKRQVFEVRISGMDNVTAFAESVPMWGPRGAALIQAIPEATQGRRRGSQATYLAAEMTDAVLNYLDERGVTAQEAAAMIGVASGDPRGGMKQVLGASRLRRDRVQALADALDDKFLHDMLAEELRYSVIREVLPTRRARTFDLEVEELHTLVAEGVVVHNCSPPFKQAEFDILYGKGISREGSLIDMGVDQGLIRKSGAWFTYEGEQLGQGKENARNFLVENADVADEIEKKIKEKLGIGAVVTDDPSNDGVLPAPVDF
Mtb growth – M. tuberculosis H37Rv growth inhibitors, H37Rv strain (AID 1626) | inhibition, % at 10 µM, or IC50 in µM where a hit was titrated | M. tuberculosis H37Rv growth inhibition; higher % means a stronger effect | hit rate 0.95% among 220,000;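 active = confirmed in a dose series; inconclusive = inhibition above 80% but not taken into the dose series; inactive = below 80% or under 30% at every dose of the series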;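 note: bacteria incubated seven days before Alamar blue readout; 0% = bacteria only wells and 100% = bacteria with antibiotic wells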
Arbovirus anti repeat – second read-out of Arbovirus anti, no call of its own (marks repeat the call); inhibition, %; measured here: 10K subset replicate screen; many hits read low in the repeat;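 first of two repeat runs on a subset; 0% = infected and 100% = uninfected wells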
Active calls of the source: *; ? = inconclusive; . = no result given.

SMILES	Mtb betalactam	Arbovirus anti	YopH inh	RecA splice inh	Mtb growth	others
COc1cc(/C=C/C(=O)O)cc(S(=O)(=O)Nc2ccccc2C(=O)NCCc2ccccc2)c1OC	-7	.	.	1.6	.
CC(C)(C)n1nnnc1C(c1ccc(C(F)(F)F)cc1)N(Cc1ccc(F)cc1)Cc1ccco1 (centres undefined)	-8	32*	-5	5.9	15%
COC(=O)CN1C(=O)CC(C)(C)Sc2ccccc21	-7	5	-27	3.4	.	Arbovirus anti repeat=-1
COc1ccc(Nc2cc3n(c(=O)n2)CCc2cc(OC)c(OC)cc2-3)cc1	-6	.	.	-3.7	.
O=C1c2cccc3cccc(c23)C(=O)C1(O)O	-8	.	.	-2.5	.
CCCN(CC1CC1)CC(O)c1ccccc1 (centres undefined)	2	.	.	-1.4	.
O=C(O)CC(c1ccccc1)N1C(=O)c2ccccc2C1=O (centres undefined)	-10	.	.	-1.1	.
Nc1ccc(-c2cnc(-c3ccc(N)cc3)nc2)cc1	16	-8	-25	-0.4	1%
COc1ccc(Cc2n[nH]c(=S)n2-c2ccc3c(c2)OCCO3)cc1	7	3	.	1.3	-10%
O=C(CN1C(=O)NC2(CCOc3ccccc32)C1=O)c1ccc[nH]1 (centres undefined)	0	.	.	1.5	.
Cc1ccc(NC(=O)C(=O)NCCc2c[nH]c3ccccc23)cc1C	0	-16	.	-0.9	4%
O=[N+]([O-])c1ccc(Oc2ccc(C(F)(F)F)cn2)cc1	-3	1	.	2.7	6%
COc1ccc(OCc2nnc(SCC(N)=O)n2N)cc1	-15	5	-23	-2.5	-6%
COc1cc(NC(=S)N2CCN(c3ccccn3)CC2)c(OC)cc1Cl	3	-6	-27	-0.9	1%
COC(=O)c1cc2c(ccn2-c2ccc(F)cc2)n1Cc1ccc(OC)cc1	99	5	-17	2.6	?
Cc1ccc2ncnc(NCCC(=O)O)c2c1	8	2	-21	-1.8	2%
O=S(=O)(Oc1ccccc1/C=N/n1cnnc1)c1ccccc1	6	-3	.	1.5	16%
C/C(=C\C(=O)OCC(=O)NCc1ccccc1)C(=O)OCC(=O)NCc1ccccc1	6	3	-17	-0.7	4%
O=C(COC(=O)c1ccc(O)cc1)Nc1ccc(OC(F)F)cc1	-8	-1	.	-2.1	-9%
Cc1ccc(-c2nc(NC(=O)CSc3nnnn3-c3ccccc3)ns2)cc1	8	15	-22	7.4	9%
CC(C(=O)NCCc1ccc(F)cc1)N1CCN(Cc2ccccc2)CC1 (centres undefined)	-9	4	.	3.3	3%
COc1ccc(N(CC(=O)NCCSc2ccccc2)S(=O)(=O)c2ccccc2)cc1OC	0	.	.	-2.4	.
CCCNc1oc(-c2cccc3ccccc23)nc1C#N	18	-7	-18	.	3%
Cc1ccc2c(c1)C(c1ccc(F)cc1)N(C(=O)c1cc3ccccc3oc1=O)CC(=O)N2 (centres undefined)	-1	3	-10	0.4	.
CSc1ccc(/C=C/C(=O)NC(=O)c2ccccc2O)cc1	18	22	.	11	16%
Cc1nc2oc3c(NCc4ccccc4)ncnc3c2c2c1COC(C)(C)C2	8	-8	-44	1.1	.
CCc1ccc(NC(=O)/C(C#N)=C/c2ccncc2)cc1	-21	.	.	9.2	.
Cn1c(SCC(=O)N2CCOCC2)nc2cccnc21	-4	-2	2	0.9	-9%
Cc1ccc2oc(C(=O)NC3CCS(=O)(=O)C3)cc(=O)c2c1 (centres undefined)	-2	.	.	-3.0	.
CCOC(=O)Cc1nnc(Nc2cccc(O)c2)c2ccccc12	-9	-12	-35	0.2	-1%
CC(=O)NC(CC(=O)OCC(=O)N1CCN(S(=O)(=O)c2ccc(Cl)cc2)CC1)c1ccccc1 (centres undefined)	3	.	.	-1.5	.
O=C(c1cc(COc2ccc(F)cc2Cl)on1)N1CCSCC1	3	.	.	2.0	.
CCN(CC(=O)NCc1ccncc1)S(=O)(=O)c1ccc(OC)cc1	5	.	.	1.1	.
CCOC(=O)C1CCN(C(=O)c2cccs2)CC1	-4	2	.	1.1	-5%
O=C(c1ccco1)N1N=C(c2ccc(Cl)cc2)CC1(O)C(F)(F)F (centres undefined)	3	0	.	5.1	4%
COc1ccc(/C=C/c2nnc(NC(=O)C(C)C)s2)cc1	-2	.	.	-3.1	-10%
O=C(Cc1ccccc1)N1CCN(C2CCCCCC2)CC1	-3	-1	.	-0.4	-11%
COc1ccc(C(=O)Nc2cccc(N(C)S(C)(=O)=O)c2)cc1OC	3	-6	10	-2.2	0%
Cc1c(Cl)cccc1N1C(=O)CC(N(O)c2ccccc2)C1=O (centres undefined)	1	4	10	.	-1%
CCOc1ccccc1CNC(=O)CCNS(=O)(=O)c1ccc2[nH]c(=O)oc2c1	-3	.	.	0.4	.
Cc1c(NC(=O)CSCc2ccccc2)cccc1C(=O)O	0	.	.	1.8	.
CC1=NN(C(=O)Cn2nc([N+](=O)[O-])cc2C)C(O)(C(F)(F)F)C1 (centres undefined)	-5	-2	-12	1.9	0%
COc1ccccc1N1CCN(C(=O)Cn2nnc(-c3cccs3)n2)CC1	-3	4	-12	1.3	10%
O=C1NC(=O)N(Cc2ccccc2)C(=O)/C1=C\N1CCCc2ccccc21	2	-7	-28	-5.1	8%
Cc1cc(C)n(-c2nc3ccccc3c(=O)n2OCC(=O)Nc2c(C)cccc2C)n1	91	-8	-41	0.7	?
COCCNC(=O)CSc1ccccc1C(=O)NCC1CCCCC1	7	8	.	-1.0	6%
CCCCCCCCCC(=O)Nn1cnc2ccccc2c1=O	13	14	.	1.2	-2%
O=C(COC(=O)c1cn(-c2ccccc2)nc1-c1ccc(F)cc1)Nc1ncc(Cl)cc1Cl	-1	8	2	2.7	1%
CN(C1CCCCC1)S(=O)(=O)c1ccc(S(=O)(=O)N2CCN(C(=O)c3ccccc3F)CC2)cc1	1	-3	-6	-1.2	-9%
COc1ccc(CCNC(=O)NS(=O)(=O)c2ccc(C)cc2)cc1OC	4	.	.	-2.9	.
CN(Cc1ccco1)C(=O)c1ccc(OC2CCN(Cc3ccccn3)CC2)cc1	5	.	.	-0.1	.
CCCC(c1nnnn1CCc1ccccc1)N1CCC(C(N)=O)CC1 (centres undefined)	-12	3	-25	0.7	-2%
CCOC(=O)N1CCN(C(=O)CS(=O)(=O)c2cn(Cc3ccc(Cl)cc3)c3ccccc23)CC1	0	11	-40	3.2	6%
CCCCn1c(=O)[nH]c2nc3cc(N)ccc3nc2c1=O	-5	-19	-17	.	4%
CCOC(=O)c1cccc(NC(=O)CCn2nc(C)c(S(=O)(=O)N3CCCCC3)c2C)c1	?	.	.	-1.5	.
COCCn1c(C)cc(C(=O)COC(=O)CCN2C(=O)c3ccccc3C2=O)c1C	?	0	-17	-0.3	-4%
O=C(COC(=O)c1ccc(Cl)c([N+](=O)[O-])c1)NC1CCCC1	-1	.	.	-2.2	.
O=[N+]([O-])CC(c1ccccc1)P(=O)(c1ccccc1)c1ccccc1 (centres undefined)	-6	.	.	-1.8	.
OCc1cc(CO)c(O)c(CCc2ccccc2)n1	-15	8	-8	-0.4	-13%
c1ccc(-c2nnc(N3CCOCC3)nc2-c2ccccc2)cc1	23	-17	-25	3.3	4%

16 compounds already listed, arranged by formula weight, highest first.
SMILES	Mtb betalactam	Arbovirus anti	YopH inh	RecA splice inh	Mtb growth	others
COc1cc(/C=C/C(=O)O)cc(S(=O)(=O)Nc2ccccc2C(=O)NCCc2ccccc2)c1OC	-7	.	.	1.6	.
C/C(=C\C(=O)OCC(=O)NCc1ccccc1)C(=O)OCC(=O)NCc1ccccc1	6	3	-17	-0.7	4%
COCCNC(=O)CSc1ccccc1C(=O)NCC1CCCCC1	7	8	.	-1.0	6%
CCN(CC(=O)NCc1ccncc1)S(=O)(=O)c1ccc(OC)cc1	5	.	.	1.1	.
O=C(c1ccco1)N1N=C(c2ccc(Cl)cc2)CC1(O)C(F)(F)F (centres undefined)	3	0	.	5.1	4%
O=[N+]([O-])CC(c1ccccc1)P(=O)(c1ccccc1)c1ccccc1 (centres undefined)	-6	.	.	-1.8	.
O=S(=O)(Oc1ccccc1/C=N/n1cnnc1)c1ccccc1	6	-3	.	1.5	16%
O=C(CN1C(=O)NC2(CCOc3ccccc32)C1=O)c1ccc[nH]1 (centres undefined)	0	.	.	1.5	.
c1ccc(-c2nnc(N3CCOCC3)nc2-c2ccccc2)cc1	23	-17	-25	3.3	4%
CCCCCCCCCC(=O)Nn1cnc2ccccc2c1=O	13	14	.	1.2	-2%
O=C(Cc1ccccc1)N1CCN(C2CCCCCC2)CC1	-3	-1	.	-0.4	-11%
COC(=O)CN1C(=O)CC(C)(C)Sc2ccccc21	-7	5	-27	3.4	.	Arbovirus anti repeat=-1
CCc1ccc(NC(=O)/C(C#N)=C/c2ccncc2)cc1	-21	.	.	9.2	.
Nc1ccc(-c2cnc(-c3ccc(N)cc3)nc2)cc1	16	-8	-25	-0.4	1%
OCc1cc(CO)c(O)c(CCc2ccccc2)n1	-15	8	-8	-0.4	-13%
Cc1ccc2ncnc(NCCC(=O)O)c2c1	8	2	-21	-1.8	2%

Continuation:
SMILES	Mtb betalactam	Arbovirus anti	YopH inh	RecA splice inh	Mtb growth	others
Cc1ccc(S(=O)(=O)N2CCOCC2)cc1C(=O)N(C)CCOc1ccc(Cl)cc1	18	.	.	2.8	-2%
CCOc1cc(NC(=S)NCCCN2CCOCC2)c(OCC)cc1NC(=O)c1cccc(F)c1	1	5	.	-2.3	-1%
COCCCN1C(=O)C(=O)/C(=C(/O)c2ccc(S(=O)(=O)N3CCOCC3)cc2)C1c1ccc(C)cc1 (centres undefined)	-9	.	.	-1.8	.
O=C1CCCc2c1cc(C(=O)Nc1ccc(Cl)cn1)c(=O)n2-c1ccccc1	0	2	12	1.0	-10%
COc1ccc(CCNC(=O)C2c3ccccc3C(=O)N2CCC(C)C)cc1OC (centres undefined)	37	.	.	2.2	.
O=S(=O)(c1ccc(NC(=S)N/N=C/c2c3ccccc3cc3ccccc23)cc1)N1CCOCC1	-6	-3	.	-10	10%
Cc1ncc(CO)c2c1Oc1nc(-c3ccccc3)nc(SCC(=O)N(C)c3ccccc3)c1C2	12	.	.	0.7	.
O=C1c2ccccc2C(Nc2cccc(C(F)(F)F)c2)N1Cc1ccco1 (centres undefined)	0	0	-31	.	4%
CCN(CC)c1nc(C#N)nc(N(CC)CC)n1	.	2	-22	-1.0	.
Cc1ccc(CN2CC(C(=O)N3CCN(S(=O)(=O)c4cc(C)ccc4C)CC3)CC2=O)cc1 (centres undefined)	-4	.	.	0.6	.
Cc1cc(NC(=O)c2cc(-c3ccc(O)cc3)on2)no1	3	.	.	0.4	18%
O=C(Nc1ccccc1)N1CCNCC1	2	.	.	-0.6	-11%
CC(C)[C@H](NC(=O)C1CCN(S(=O)(=O)c2ccccc2)CC1)C(=O)NCc1ccco1	4	.	.	1.7	.
COc1ccc(NS(=O)(=O)c2cccc(NC(=O)CCS(=O)(=O)c3ccccc3)c2)cc1	-5	2	-49	2.8	0%
COc1ccc(/C=N/NC(=O)c2[nH]nc3c2CCc2ccccc2-3)cc1OC	10	-12	-12	1.0	3%
CC(C)CC(NC(N)=O)C(=O)NCc1ccc(Cl)cc1 (centres undefined)	0	-2	.	-3.0	0%
CCC(CC)c1nnc(NC(=O)CS(=O)(=O)Cc2ccccc2)s1	-7	12	-49	0.5	-3%
CC1CCc2c(sc(NC(=O)c3ccccc3C(=O)O)c2C#N)C1 (centres undefined)	-4	59*	.	-1.1	-6%
O=C(COc1ccc(Cl)cc1Cl)N(c1ccccn1)C1CCCCC1	3	16	-18	9.0	4%
CCC(Sc1ncnc2c1nnn2-c1ccc(F)cc1)C(=O)OC (centres undefined)	99	11	-7	3.4	67%
COc1ccc(CCNC2=NCCS2)cc1OC	1	.	.	0.2	6%
Cc1cc(OC(C)C)c2c(-c3ccccc3)cc(=O)oc2c1	43	-2	-1	2.5	23%
Cc1nc(Cc2nnc(SCC(=O)N(C)c3ccccc3)o2)cs1	-1	.	.	-8.1	.
COc1cccc(CN2CC(C(=O)N3CCN(c4ccc(Cl)cc4)CC3)CCC2=O)c1 (centres undefined)	5	.	.	1.4	.
C=CCNC(=O)CN(Cc1ccccc1)S(=O)(=O)c1ccc(C)cc1	-2	.	.	-3.0	.
COc1ccc([N+](=O)[O-])cc1NC(=O)C(C)OC(=O)CSC(C)C(=O)Nc1cc(C)on1 (centres undefined)	-2	.	.	-0.7	.

These rows are one share of the data. The share of hits here may be higher or lower than overall.
